Compound activity: PubChem BioAssay, ICCB-Longwood Screening Facility, Harvard Medical School
KSHV LANA nucl – LANA-nucleosome interaction inhibition | FITC-LANA1-23 / chicken nucleosome fluorescence polarization; hits give low values | z-score (test concentration not listed) | 51,000 compounds, 0.3% hits | AID 720717;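 active means both repeat wells score below -2 in polarization z-score versus plate sample wells, excluding overly bright wells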;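 further: 100 nL library stock added to about 30 µL; numbers are from one replicate; some results filed as inactive read as strong as hits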
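Assay system: FITC-LANA peptide and chicken nucleosomes; input: 240 nM purified chicken nucleosomes (480 nM peptide binding sites), final; also added: 50 nM FITC-LANA1-23 probe; medium: TEN-BT buffer, pH 7.5; doses: pin-transferred compound, 100 nL; times: 10–45 min, room temperature; technique: fluorescence polarization; replication: duplicates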
BasE inh – BasE siderophore biosynthesis inhibition | purified BasE, fluorescence polarization binding displacement | inhibition, % (concentration not given with the values) | 84,000 compounds, 0.1% hits | AID 485350;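 active means both replicates above 25% with normal brightness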;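 further: 0% = negative plate control signal and 100% = positive plate control signal; stock transfer was 100 nL into about 30 µL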
An asterisk follows results filed as active; / = no result given.

No.	SMILES	KSHV LANA nucl	BasE inh
1	O=C(CCN1C(=O)NC2(CCCC2)C1=O)N1CCC(c2nc3ccccc3s2)CC1	/	-1.9
2	O=C(NCCCN1CCCC1)c1ccc2c(c1)N(Cc1ccccc1F)C(=O)c1ccccc1S2=O (configuration not stated)	0.006	-18
3	COc1ccccc1N1CCN(C(=O)COc2c(C)cccc2C)CC1	-1.8	0.6
4	Cc1nnc(SCC(=O)c2c(-c3ccccc3)n(C)c3ccccc23)n(N)c1=O	/	-1.6
5	CC/C(C)=N/NC(=O)c1ccc(CSc2nncn2C)cc1	/	0.2
6	NCCCN1CCc2ccccc21	0.034	2.2
7	Cn1c(CO)cnc1SCC(=O)c1ccc(Br)cc1	-0.82	/
8	COc1cc(OC)c(C(=O)NC2CC(C)(C)NC(C)(C)C2)cc1OC	0.15	-1.4
9	CCCCC(c1nnnn1CCc1ccccc1)N1CCN(C2CCCC2)CC1 (configuration not stated)	-0.91	0.3
10	Cc1nn(-c2ccccc2)nc1C(=O)c1c(C)[nH]n(-c2ccccc2)c1=O	0.072	3.1
11	CC1Oc2ccccc2N(CC(=O)c2ccccc2)C1=O (configuration not stated)	-0.34	-1.9
12	Cc1c(-c2nnc(Nc3ccccc3)s2)sc2nc3n(c(=O)c12)CCC3	-0.47	-0.8
13	Cn1c(CCC(=O)NCc2ccc(F)cc2)nc2cc(S(=O)(=O)N3CCCCC3)ccc21	/	-1.0
14	CCc1ccc(NC(=O)N(C2CCCC2)C2CCN(C(C)=O)CC2)cc1	-0.4	1.0
15	CCOc1ccc(NC23SCC(=O)C2CCc2ccccc23)cc1 (configuration not stated)	/	4.4
16	Cc1cc(C(F)(F)Cl)nc(-c2ccccc2)n1	-0.099	/
17	O=C1CC(N2CCN(S(=O)(=O)c3ccc4c(c3)OCCO4)CC2)C(=O)N1c1cccc(C(F)(F)F)c1 (configuration not stated)	/	-2.6
18	CCOC(=O)c1ccc(NC(=S)NCCCN2CCCC2=O)cc1	-0.21	1.3
19	COc1ccc(C2N=C(N3CCc4ccccc43)Nc3nc(C)cc(=O)n32)cc1 (configuration not stated)	0.59	0.7
20	CC(NC(=O)CCOc1ccccc1)c1ccc(-n2ccnc2)cc1 (configuration not stated)	/	2.5
21	O=C(OC1CSc2nc3ccccc3n2C1)c1ccco1 (configuration not stated)	0.12	-0.2
22	Cc1nc(Cc2nnc(SCc3cc(=O)oc4cc5c(cc34)CCC5)o2)cs1	/	0.5
23	Cn1c(=O)c(-c2noc(-c3ccc(Cl)cc3)n2)cn(-c2ccccc2)c1=O	-0.87	1.4
24	COc1ccc(NC(=O)NC2CCCc3ccccc32)cc1OC (configuration not stated)	0.12	0.4
25	O=C(N/N=C/c1ccc(-c2ccc(Cl)c(C(=O)O)c2)o1)c1ccncc1	-0.37	3.5

From compound 2 to 19, as listed above:
No.	SMILES	KSHV LANA nucl	BasE inh
2	O=C(NCCCN1CCCC1)c1ccc2c(c1)N(Cc1ccccc1F)C(=O)c1ccccc1S2=O (configuration not stated)	0.006	-18
3	COc1ccccc1N1CCN(C(=O)COc2c(C)cccc2C)CC1	-1.8	0.6
4	Cc1nnc(SCC(=O)c2c(-c3ccccc3)n(C)c3ccccc23)n(N)c1=O	/	-1.6
5	CC/C(C)=N/NC(=O)c1ccc(CSc2nncn2C)cc1	/	0.2
6	NCCCN1CCc2ccccc21	0.034	2.2
7	Cn1c(CO)cnc1SCC(=O)c1ccc(Br)cc1	-0.82	/
8	COc1cc(OC)c(C(=O)NC2CC(C)(C)NC(C)(C)C2)cc1OC	0.15	-1.4
9	CCCCC(c1nnnn1CCc1ccccc1)N1CCN(C2CCCC2)CC1 (configuration not stated)	-0.91	0.3
10	Cc1nn(-c2ccccc2)nc1C(=O)c1c(C)[nH]n(-c2ccccc2)c1=O	0.072	3.1
11	CC1Oc2ccccc2N(CC(=O)c2ccccc2)C1=O (configuration not stated)	-0.34	-1.9
12	Cc1c(-c2nnc(Nc3ccccc3)s2)sc2nc3n(c(=O)c12)CCC3	-0.47	-0.8
13	Cn1c(CCC(=O)NCc2ccc(F)cc2)nc2cc(S(=O)(=O)N3CCCCC3)ccc21	/	-1.0
14	CCc1ccc(NC(=O)N(C2CCCC2)C2CCN(C(C)=O)CC2)cc1	-0.4	1.0
15	CCOc1ccc(NC23SCC(=O)C2CCc2ccccc23)cc1 (configuration not stated)	/	4.4
16	Cc1cc(C(F)(F)Cl)nc(-c2ccccc2)n1	-0.099	/
17	O=C1CC(N2CCN(S(=O)(=O)c3ccc4c(c3)OCCO4)CC2)C(=O)N1c1cccc(C(F)(F)F)c1 (configuration not stated)	/	-2.6
18	CCOC(=O)c1ccc(NC(=S)NCCCN2CCCC2=O)cc1	-0.21	1.3
19	COc1ccc(C2N=C(N3CCc4ccccc43)Nc3nc(C)cc(=O)n32)cc1 (configuration not stated)	0.59	0.7

Continuation:
No.	SMILES	KSHV LANA nucl	BasE inh
26	O/N=C1/C(c2ccccc2)=Nc2ncnn2C1c1ccccc1 (configuration not stated)	/	0.4
27	COc1cccc2cc(C(=O)N3CCN(c4cc(Cl)ccc4C)CC3)c(=O)oc12	/	3.2
28	CCNCc1ccc(-c2cccc(Cl)c2)o1	-0.16	-1.6
29	COc1ccc(NC(=O)CCOc2ccccc2)cc1	1.3	1.4
30	COc1cc(C)nc(Oc2ccc(OCCOc3ccccc3)nn2)n1	-0.67	-0.3
31	CC(=O)Nc1ccc(NC(=O)c2cc(=O)[nH]c3ccccc23)cc1	-1.2	4.1
32	CCc1ccc(C(=S)N2CCOCC2)cc1	0.9	-0.8
33	CC(C)c1ccc(/C=N/O)cc1	/	-0.1
34	CCCn1c(=O)c2c(C(=O)OCC)cc(-c3ccccn3)nc2n(CCC)c1=O	/	11
35	COCC(C)N1C(=Nc2cccnc2)SCC1(O)c1cc2ccccc2o1 (configuration not stated)	/	-0.7
36	CCOc1ccc(Cl)cc1N	0.12	-0.8
37	Cc1cccc2c(N=O)c(O)n(CCc3ccccc3)c12	0.2	1.9
38	COc1cccc(CN2C(=O)NC3(CCSC3)C2=O)c1 (configuration not stated)	/	0.2
39	O=C1CC(c2ccc(F)cc2)CC2=C1C(c1ccccc1)N=C(Nc1nc3ccccc3o1)N2 (configuration not stated)	0.19	-1.4
40	Cc1cc(OCC(O)CN(C(C)C)C(C)C)c(C(C)C)cc1Cl (configuration not stated)	/	-0.7
41	O=C(NCCN1CCCC1)c1ccco1	-0.049	1.8
42	COc1cccc(C2NC(=O)NC(C)=C2C(=O)Nc2ccccc2C)c1OC (configuration not stated)	0.62	-0.3
43	CN(C)S(=O)(=O)c1cccc(C(=O)OCC(=O)NC2CCCC2)c1	/	-1.1
44	Cc1ccc(C2CC(=O)N(C)c3c2c(C)nn3-c2nc3ccccc3s2)cc1 (configuration not stated)	0.73	3.3
45	CCn1c(=O)c(CCC(=O)NCc2ccc3c(c2)OCO3)c(C)c2c(C)nn(-c3cccc(C)c3)c21	0.52	-0.6
46	CC(=O)Nc1ccccc1-c1nc2cc(C#N)c(C#N)cc2[nH]c1=O	-1.1	1.5
47	CC1=C(C#N)C(c2ccc3c(c2)OCO3)C2=C(CCCC2=O)N1 (configuration not stated)	-0.32	-0.5

Quoted at random: two entries already listed.
No.	SMILES	KSHV LANA nucl	BasE inh
33	CC(C)c1ccc(/C=N/O)cc1	/	-0.1
27	COc1cccc2cc(C(=O)N3CCN(c4cc(Cl)ccc4C)CC3)c(=O)oc12	/	3.2

The list is partial; the hit share may differ from the screen's.
